HNF4A DNA FP: change in binding of human HNF4A to DNA, primary screen, biochemical, fluorescence polarization, FITC-DNA; activity change, % at 10 µM; actives 0.3% (n = 360,000); Hepatocyte nuclear factor 4-alpha (Homo sapiens), P41235; 1 h; in the data active means activity change above about 30%, passing the limit was not always enough;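 further: controls were the assay level and a saturating level of protein; the project sought stronger binding though the title names inhibitors; some compounds called inactive have numbers as strong as hits; positive values seem to mean higher polarization but the record does not say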
Calb FLC: C. albicans growth inhibition with fluconazole, primary screen, CaCi-2 strain, Alamar Blue fluorescence. C. albicans CaCi-2 (fluconazole-resistant clinical isolate) + fluconazole, 48 h. growth inhibition, % (concentration not given with the values). actives 0.57% (n = 300,000). AID 1979, 2009;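 active means most replicates above 75%; inconclusive means exactly half above 75%; inactive means most below 75%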;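 further: all wells also contain fluconazole at 8 µg/ml as a sub-toxic cotreatment; 0% = median of DMSO wells and 100% = median of geldanamycin control wells; wells of about 8 µL received 7.5 nL stock; the first replicate is given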
Vif TR-FRET: inhibitors of Vif binding to APOBEC3G peptide, primary screen, biochemical, TR-FRET, GST-Vif 1-94, biotin-A3G peptide, dose response retest (AID 1117319); Virion infectivity factor (Human immunodeficiency virus type 1 group M subtype B (isolate …; actives 0.57% (n = 260,000); TR-FRET GST-Vif / biotin-A3G peptide binding; higher % means a stronger effect; test concentration not given here; strong numbers were not always called active; inhibition, %; hits with a dose series show IC50 in µM;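 active means above the screen mean plus three standard deviations and confirmed in dose response; inconclusive means results disagree or hit not tested in dose response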;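 further: Vif residues 1-94 fused to GST binding biotinylated APOBEC3G peptide 110-148; 0% = full assay without inhibitor and 100% = GST in place of GST-Vif; retest series ran down from 100 µM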
Beta2AR agonist: beta2AR agonists driving receptor internalization, primary screen, cell-based, FAP fluorogen, flow cytometry; Am2.2-beta2AR cells; reference of the scale not given here; response, % (no concentration beside the values); actives 0.43% (n = 340,000); AID 504454, 2011;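 active means response above a set limit, near 3 SD of response in nonfluorescent compounds, cut at about 42% in these data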;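 further: stock transfer was 100 nL into about 11 µL; a reference agonist was the positive control; negative values mostly stem from fluorescent compounds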
ALR H2O2 inh: inhibitors of human ALR sulfhydryl oxidase, primary screen, biochemical, H2O2 detection, HRP-luminol luminescence, single point; inhibition, % (concentration not given with the values); AID 485317, 2010; actives 3.8% (n = 290,000); purified ALR, DTT oxidation; FAD-linked sulfhydryl oxidase ALR (Homo sapiens), P55789;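 active means mean and each replicate at 75% or more; inconclusive means only one of the two met; inactive means neither met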;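 further: stock transfer was 7.5 nL into about 7.5 µL; 0% = neutral wells and 100% = wells with inactivated enzyme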
RanGTP-Imp inh: inhibitors of RanGTP-importin-beta interaction, primary screen, biochemical, FRET, CFP-Ran, YFP-importin-beta, homogeneous; cell-free CFP-Ran/YFP-importin-beta FRET ratio; inhibition, % (no concentration beside the values); actives 1.1% (n = 300,000); AID 2216, 2009;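 active means most replicates above 15%; inconclusive means exactly half above 15%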;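 further: 0% = DMSO wells and 100% = Ran loaded with GDP instead of GTP; wells of about 40 µL received 100 nL stock; the first replicate is given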
LANA-H2B inh: blockers of LANA interaction with H2A/H2B – biochemical, FP readout, HTS, primary screen | Protein LANA1 (Human herpesvirus 8 type P (isolate GK18)), Q9QR71 | cell-free LANA-H2A/H2B peptide, fluorescence polarization | inhibition, % (no concentration beside the values) | actives 0.6% (n = 320,000) | AID 2629, 2010; in the data active means inhibition mostly above about 10%, no sharp cut-off; inactive means mostly below about 6.7%;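 further: stock transfer was 7.5 nL into about 10 µL; 0% = median of vehicle wells and 100% = median of positive control wells; one replicate is shown; the record names a cut of 25% in any replicate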
Target sequence (Q9QR71 whole entry, looked up): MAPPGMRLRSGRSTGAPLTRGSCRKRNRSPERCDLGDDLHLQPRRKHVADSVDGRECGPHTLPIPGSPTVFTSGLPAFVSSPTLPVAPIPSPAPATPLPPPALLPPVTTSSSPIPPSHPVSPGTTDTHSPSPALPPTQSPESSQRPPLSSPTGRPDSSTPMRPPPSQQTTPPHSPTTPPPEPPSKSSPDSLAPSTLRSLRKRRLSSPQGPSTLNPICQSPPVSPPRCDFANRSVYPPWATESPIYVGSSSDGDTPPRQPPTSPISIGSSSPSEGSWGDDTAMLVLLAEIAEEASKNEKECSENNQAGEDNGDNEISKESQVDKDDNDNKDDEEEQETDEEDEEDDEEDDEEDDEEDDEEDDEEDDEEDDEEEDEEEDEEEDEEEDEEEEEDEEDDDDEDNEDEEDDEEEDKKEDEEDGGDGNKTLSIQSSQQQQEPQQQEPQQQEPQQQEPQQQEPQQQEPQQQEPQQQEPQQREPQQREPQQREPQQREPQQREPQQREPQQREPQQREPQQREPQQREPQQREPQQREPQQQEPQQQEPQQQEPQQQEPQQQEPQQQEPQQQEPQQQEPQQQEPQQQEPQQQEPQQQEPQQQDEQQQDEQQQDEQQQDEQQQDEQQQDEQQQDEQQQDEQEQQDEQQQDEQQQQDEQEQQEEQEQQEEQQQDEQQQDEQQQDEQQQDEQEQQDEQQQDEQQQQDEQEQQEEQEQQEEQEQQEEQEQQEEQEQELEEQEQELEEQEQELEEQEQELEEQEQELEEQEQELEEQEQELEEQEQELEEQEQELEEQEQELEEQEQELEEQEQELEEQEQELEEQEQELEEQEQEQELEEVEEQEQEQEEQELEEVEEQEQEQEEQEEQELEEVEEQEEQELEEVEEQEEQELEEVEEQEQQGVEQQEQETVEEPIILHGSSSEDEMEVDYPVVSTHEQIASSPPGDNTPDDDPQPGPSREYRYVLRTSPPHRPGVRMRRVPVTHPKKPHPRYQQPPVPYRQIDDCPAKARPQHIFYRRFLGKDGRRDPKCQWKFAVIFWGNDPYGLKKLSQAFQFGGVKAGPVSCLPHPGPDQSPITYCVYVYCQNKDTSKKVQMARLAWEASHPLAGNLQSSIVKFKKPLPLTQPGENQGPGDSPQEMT
* marks the source's active call; other numbers are inactive results; ? = inconclusive; · = no result given; & = joins results of further samples.

compound,HNF4A DNA FP,Calb FLC,Vif TR-FRET,Beta2AR agonist,ALR H2O2 inh,RanGTP-Imp inh,LANA-H2B inh
CC(=O)Nc1ccc(S(=O)(=O)N2CCN(C(=O)c3ncoc3-c3ccc(C)cc3)CC2)cc1,2.2,-5,·,-2,-23,2.1,-5.0
COC(=O)c1ccc(CSc2nnc(NC(C)C)s2)o1,0.6,9,0%,-6,12,-0.1,-1.4
Cn1c(C(=O)N[C@@H](Cc2ccccc2)C(=O)O)cc2cc(Cl)ccc21,20,10,3%,-1,0,-2.8,-5.1
Cc1ccc(NC(=O)OCCN2CCN(S(=O)(=O)c3ccc(C)cc3)CCC2=O)cc1,-4.2,-9,?,0,-6,1.3,-1.2
COc1ccc(OC)c(C2/C(=C(/O)c3cnn(-c4ccccc4)c3C)C(=O)C(=O)N2CCN(C)C)c1 (stereo not given),0.5,7,·,-3,-3,7.2,-1.3
CCCN(CCC)C(=O)Cn1c(=O)n(CCCCC(=O)NC2CCCC2)c(=O)c2ccccc21,2.8,-4,3%,1,-2,0.1,-5.5
CC(C)C(=O)Nc1cccc(C(=O)N2CCCCC2C)c1 (stereo not given),1.9,-3,12%,8,-3,-3.6,2.9
Cc1ccc(O)c(/C=N/NC(=O)c2[nH]ncc2Br)c1,-1.3,-6,5%,2,7,-2.1,-2.4
CC(NC(=O)NC(=O)c1ccc(F)cc1)C1CC1 (stereo not given),-1.9,·,·,0,·,·,4.9
Cc1nnc(SCC(=O)Nc2cccc(N)c2)n1-c1ccccc1,-2.9,1,·,-7,·,-1.7,1.1
O=C(CSc1nc2c(cnn2-c2ccccc2)c(=O)[nH]1)N1N=C(c2cccs2)CC1c1ccc(F)cc1 (stereo not given),-0.9,5,-28%,5,-3,0.6,0.6
O=C(COC(=O)C1=COCCO1)Nc1cccc(Oc2ccccc2)c1,-2.8,-17,0%,-18,3,-5.2,5.4
CCOCCCNC(=S)N1C2CCC1CC(NC(=O)NC1CCCCC1)C2 (stereo not given),0.1,4,8%,-20,-3,0.3,1.4
COc1ccc(C(=O)Nc2nncs2)cc1S(=O)(=O)N1CC(c2ccccc2)CC1=O (stereo not given),0.9,11,72%&-4%,-1,-10,6.5,-1.1
CCN(C(=O)COC(=O)CCC(=O)c1ccccc1)c1c(N)n(Cc2ccccc2)c(=O)[nH]c1=O,-3.1,·,-4%,-2,-3,·,-11
O=C1CC(N2CCN(Cc3ccc(Cl)cc3)CC2)C(=O)N1CCc1ccccc1 (stereo not given),0.9,20,·,4,·,6.1,3.2
O=C(Cn1cnc2cc([N+](=O)[O-])ccc2c1=O)N1CCN(S(=O)(=O)c2ccccc2)CC1,-3.7,·,3%,-1,-89,·,-1.8
O=C(c1ccccc1)N1CCN(CC(O)COc2ccc(Br)cc2)CC1 (stereo not given),-0.9,4,4%,-3,-19,-1.4,3.7
CN(C)C(=O)Cn1c(=O)n(S(=O)(=O)c2ccccc2)c2ccccc21,1.2,-1,-3%,-7,-10,0.9,14*
C=CCOC(=O)/C(=C\C=C\c1ccccc1)NC(=O)c1ccccc1,4.2,-3,·,1,-1,0.7,-1.8
O=C1c2ccc([N+](=O)[O-])cc2S(=O)(=O)N1Cc1ccccc1,-3.3,-7,·,17,9,1.4,-5.9
Nc1ccc(Sc2cnn(-c3ccccc3)c(=O)c2Cl)cc1,-0.6,-4,-2%,5,92*,-4.1,-2.6
O=C(CCCn1c(SCc2cc(=O)n3ccccc3n2)nc2ccccc2c1=O)NCC1CCCO1 (stereo not given),-1.9,5,1%,-13,-6,-0.6,5.9
C=CCc1ccc(OCCOc2cccc3ccc(C)nc23)c(OC)c1,-2.1,4,?,5,-9,-2.6,0.2
C=CCNC(=S)NNC(=O)COc1ccc(Cl)cc1Cl,2.9,-1,17%,-6,7,0.8,-1.7
CC(C)(C)c1ccc(NC(=O)COC(=O)C2(C)CC2(Cl)Cl)cc1 (stereo not given),-2.1,13,-8%,6,·,0.7,1.8
CC(=O)c1ccc(N2CCN(C(=O)c3ccc4ccccc4n3)CC2)cc1,-0.3,8,6%,3,-17,-1.7,-5.9
C=CCOc1ccc(/C=N/O)cc1Cl,-1.2,-3,-5%,1,-13,-2.0,-1.8
Cc1ccc(NC(=O)c2cccc(NC3=NC4CS(=O)(=O)CC4S3)c2)cc1 (stereo not given),-2.8,-7,·,9,-22,-1.4,-8.1
COc1cccc(NS(=O)(=O)c2ccc3c(c2)CCCN3C(C)=O)c1,-0.1,-13,1%,47*,-3,4.1,2.7

The final two entries of the part before are carried over, then new ones follow:
compound,HNF4A DNA FP,Calb FLC,Vif TR-FRET,Beta2AR agonist,ALR H2O2 inh,RanGTP-Imp inh,LANA-H2B inh
Cc1ccc(NC(=O)c2cccc(NC3=NC4CS(=O)(=O)CC4S3)c2)cc1 (stereo not given),-2.8,-7,·,9,-22,-1.4,-8.1
COc1cccc(NS(=O)(=O)c2ccc3c(c2)CCCN3C(C)=O)c1,-0.1,-13,1%,47*,-3,4.1,2.7
COC(C[C@H](O)CC(=O)[C@@H](C)OCc1ccccc1)OC,0.9,10,·,-2,-4,6.8,4.9
CN(C)C1=NCC(CSC(=N)N)S1 (stereo not given),3.4,-6,-6%,1,-5,·,0.8
O=C(Cc1cccs1)Nc1ccccc1F,-0.1,-2,-4%,-8,-11,3.1,-2.0
O=C(Cc1ccc(Cl)cc1)NCCc1ccc(F)cc1,1.9,6,·,0,-4,3.6,3.6
c1ccc(Cn2ncc3c(N4CCCCC4)ncnc32)cc1,4.7,-1,-2%,-9,0,-0.3,-5.6
COc1cc(C(=O)NCCc2cn3ccccc3n2)cc(OC)c1OC,2.9,-2,1%,-7,5,-3.6,0.3
CC1(C)C(=O)C2(C(=O)NCc3ccccc3)CCC1C2 (stereo not given),2.7,-2,-3%,-6,-6,-2.5,-20
COc1ccc(NC(=O)C2CCC(=O)N2S(=O)(=O)c2ccc(C)cc2)cc1Cl (stereo not given),0.0,8,5%,-3,·,2.0,-0.7
O=C(CCOc1ccccc1)Nc1cccc([N+](=O)[O-])c1,0.5,-27,1%,2,3,-2.2,2.6
COC/C=C/C1=CC2=CC(=O)C(C)(OC(=O)c3cnc4ccccc4n3)C(=O)C2=CN1Cc1ccc(OC)cc1 (stereo not given),-9.3,13,·,-7,·,-1.8,-1.9
CC(C)NC(=O)NC(=O)COC(=O)c1ccccc1F,1.6,-6,·,-1,-25,?,3.4
O=S(=O)(c1cnc(Cl)c(Cl)c1)N1CCCc2ccccc21,-0.4,25,·,-1,·,0.1,4.3
COc1ccccc1N1CCN(c2cc(N3CCCC3)nc(C)n2)CC1,3.0,0,10%,-5,?,-1.0,0.4
O=C(CN1C(=O)/C(=C/c2ccccc2)SC1=S)N1CCN(CCc2ccccn2)CC1,2.1,·,·,-7,-7,0.0,-2.7
O=S(=O)(c1cccc(-c2nnco2)c1)N1CCOCC1,2.1,-10,14%,4,-4,-1.0,-3.0
N#CC(CCc1ccccn1)c1ccccc1 (stereo not given),2.3,·,-4%,33,·,·,·
CC(=O)Nc1c(O)[nH]c2ccccc12,-2.2,-14,4%,-8,-6,4.3,4.1
O=C(Nc1nc(-c2ccc(S(=O)(=O)N3CCCC3)cc2)cs1)C1COc2ccccc2O1 (stereo not given),0.9,18,-30%&-21%,21,0,6.8,-2.3
COC(=O)C1=C(C(=O)OC)C(c2cc([N+](=O)[O-])ccc2O)c2sc(=O)[nH]c2S1 (stereo not given),1.3,-3,-4%,0,-22,·,7.2
COc1ccccc1N(C(=O)NCc1ccccc1)C1=NCC(C)S1 (stereo not given),-0.8,-2,5%,1,12,?,5.9
COc1ccc(NC(=O)CSc2nc(C)cs2)cc1OC,0.5,7,7%,-3,-11,-3.5,0.9
CC(=O)/C=C1\N(C)c2ccc(C)cc2C1(C)C,6.2,1,2%,12,7,-1.6,-2.8
CCOc1ccc(NC(=O)CN(c2ccc(C)cc2)S(=O)(=O)c2c(C)nn(C)c2C)cc1,-4.7,8,·,6,-2,2.7,-7.5
COc1ccc(N(C(=O)c2cccnc2)S(=O)(=O)c2cccs2)cc1,4.1,40,-1%,-1,-11,-1.0,-0.2
COc1cccc(-c2cc(C(=O)N/N=C/c3ccc(OC)c(COC(C)=O)c3)c3ccccc3n2)c1,-2.8,6,2%,0,·,2.7,3.5
Cc1cc(=O)[nH]c(N/N=C/c2cccc([N+](=O)[O-])c2)n1,·,-6,-4%,·,11,-2.2,10
CC(=O)N1CCc2c(sc(NC(=O)c3ccc4c(c3)OCCO4)c2C#N)C1,1.7,-8,-1%,9,·,39*,1.6
O=C(O)CC/C(=N\NC(=O)c1ccccc1)c1cccs1,0.6,6,-4%,4,60,6.8,-0.2
O=C(NCC1CCCO1)c1ccc(COc2ccccc2)cc1 (stereo not given),-2.1,16,·,1,1,-1.8,0.0
Cn1nnnc1SCC(=O)N1CCCCC1,4.2,1,·,-2,5,7.4,-3.7
CN1CCN(C(=O)CN(c2cccc(Br)c2)S(=O)(=O)c2ccccc2)CC1,2.2,-2,5%,13,·,2.7,-0.9
C#Cc1ccc([C@H]2C=C(C(=O)NCc3nc4ccccc4[nH]3)O[C@@H](OCC)[C@@H]2CCCO)cc1,3.8,19,·,-1,-6,4.5,-3.4
O=C(OCCN1CCOCC1)c1ccc(O)cc1,-1.6,-9,-1%,2,-6,?,0.1
CCN1CCN(CCNC(=O)CCc2c(C)c3c(C)nn(-c4ccccc4)c3n(C)c2=O)CC1,0.1,10,·,0,-3,0.6,5.8
COc1ccc(OC)c(CCNC(=O)CCn2nc(C)c3c(C)n(-c4ccccc4)nc3c2=O)c1,3.9,-7,·,-7,-2,1.4,5.3
Cc1ccc(Sc2ncccc2COC(=O)Nc2ccccc2)cc1,-2.9,1,6%,4,-4,2.6,-1.7
Cc1cc(OCC(=O)N2CCOCC2)ccc1[N+](=O)[O-],-3.1,0,-6%,-14,-8,-1.5,-5.5
O=C(NCc1ccco1)c1cc2c(s1)CCCCC2,-2.5,-9,9%,-4,1,7.3,1.0
COc1cc2c(=O)n(CCC(=O)NCC3CCCO3)c(=O)n(CC(=O)Nc3ccc(C)cc3)c2cc1OC (stereo not given),1.5,-5,·,-2,-2,-1.4,4.8
Cc1ccnc(NS(=O)(=O)c2cc([N+](=O)[O-])ccc2C)c1,1.6,-8,-2%,6,1,-0.2,-3.4
C=CCC(C(=O)OC)(C(=O)OC)c1ccc([N+](=O)[O-])cn1,0.5,13,31%,4,-11,1.5,1.7
CN1/C(=C/C=C(/C#N)C(N)=O)C(C)(C)c2ccccc21,36*,-11,-3%,-4,92*,115*,-13
COc1ccc(NC(=O)Cn2c(C(C)C)nc(C)cc2=O)cc1Cl,-0.2,-14,-7%,-6,-9,-0.1,-0.7
COc1ccc2nc(SCC(=O)NC(C)C)[nH]c2c1,-0.1,-1,2%,6,-11,4.0,-0.4
CCCOc1ccc(C2Nc3cccc4cccc(c34)N2)cc1,3.0,3,7%,13,·,?,0.8
